Env fusion inh – inhibitors of HIV Env-mediated cell fusion | HeLa-JRFL Env/CEM21 cell fusion, luciferase | inhibition, % at 12.3 µM | hit rate 1.1% among 360,000 | AID 651610;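 active = mean replicate inhibition score of at least 50 and every replicate individually at or above 50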;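 note: 0% = plate neutral controls and 100% = maraviroc near 300 nM; one replicate is shown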
PABP polyA inh – blocks human PABP binding to poly(A) RNA; fluorescence polarization; inhibition, % at 35 µM; hit rate 1% among 290,000;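 active = 50% or more with normal probe brightness, or confirmed in later tests; about a fifth of its hits are not listed in these tables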;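 note: calls also rest on retests at 20 µM and on dose response follow-up; controls were probe without protein and protein plus probe with vehicle; some compounds called inactive have numbers as strong as hits; many hits fall short of the cut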
Target sequence (P11940 whole entry, looked up): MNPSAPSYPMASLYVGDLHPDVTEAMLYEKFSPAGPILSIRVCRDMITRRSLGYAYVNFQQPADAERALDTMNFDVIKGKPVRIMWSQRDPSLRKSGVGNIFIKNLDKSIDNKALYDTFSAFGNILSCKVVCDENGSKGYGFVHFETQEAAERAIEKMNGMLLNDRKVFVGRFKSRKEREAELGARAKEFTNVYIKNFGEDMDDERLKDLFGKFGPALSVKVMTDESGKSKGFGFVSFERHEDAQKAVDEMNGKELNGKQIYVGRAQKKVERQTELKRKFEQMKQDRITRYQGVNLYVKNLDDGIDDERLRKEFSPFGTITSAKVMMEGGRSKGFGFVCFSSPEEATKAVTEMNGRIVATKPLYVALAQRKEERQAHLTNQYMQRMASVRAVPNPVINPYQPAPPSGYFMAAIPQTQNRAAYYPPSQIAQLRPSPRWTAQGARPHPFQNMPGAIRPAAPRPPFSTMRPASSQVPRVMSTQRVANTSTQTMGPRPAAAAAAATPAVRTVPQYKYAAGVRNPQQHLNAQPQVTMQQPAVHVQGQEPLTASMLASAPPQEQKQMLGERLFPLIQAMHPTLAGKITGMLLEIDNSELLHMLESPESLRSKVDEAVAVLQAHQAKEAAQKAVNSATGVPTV
eIF4H inh – inhibitors of RNA binding by human eIF4H. hit rate 0.94% among 290,000. Q15056. inhibition, % at 35 µM. eIF4H fluorescence polarization binding assay;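 active = 50% or more with normal probe brightness, or confirmed in later tests; about a fifth of its hits are not listed in these tables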;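 note: calls also rest on retests at 20 µM and on dose response follow-up; 0% = protein and probe with vehicle and 100% = probe without protein; strong numbers were not always called active; many hits fall short of the cut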
Yeast UUG start – alters start codon recognition fidelity in yeast | S. cerevisiae UUG-firefly luciferase reporter, luminescence/redox ratio | activity score, % at 18.7 µM | hit rate 0.13% among 350,000;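 active = replicate mean at a twofold rise or more, about +100% in these data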;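 note: firefly luciferase made from a UUG start codon reports start codon fidelity; reporter light over untreated wells divided by growth signal over untreated wells; some hits fall short of that in this replicate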
Rce1 inhib – inhibitors of yeast Ras-converting enzyme; yeast membranes, quenched prenylated peptide cleavage fluorescence; calls only; hit rate 0.27% among 290,000;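 active = fall in fluorescence gain of 50% or more versus controls, with final raw signal at or below 3038400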;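 note: plate controls were neutral control wells for no effect and wells lacking membranes for full effect; tested at 10 µM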
Target sequence (Q03530 whole entry, looked up): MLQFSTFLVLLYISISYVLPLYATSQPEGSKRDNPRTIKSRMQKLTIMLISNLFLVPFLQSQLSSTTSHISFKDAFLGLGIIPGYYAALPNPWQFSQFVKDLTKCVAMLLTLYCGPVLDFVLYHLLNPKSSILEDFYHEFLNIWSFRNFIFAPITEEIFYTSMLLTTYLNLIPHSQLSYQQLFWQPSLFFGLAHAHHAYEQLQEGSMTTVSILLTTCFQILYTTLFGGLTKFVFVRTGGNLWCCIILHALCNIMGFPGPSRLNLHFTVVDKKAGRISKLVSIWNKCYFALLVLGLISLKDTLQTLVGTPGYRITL
MT1-MMP act inh – blocks activation of human MT1-MMP | P50281 | HT1080 RFP-PRO-GFP cells, GFP/RFP ratio fluorescence, overnight; percent of plate control window, DMSO zero | GFP/RFP ratio change, % at 20 µM | hit rate 0.061% among 360,000 | AID 651647;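 active = GFP/RFP ratio change of at least 30% with cell ATP level not reduced by more than half and red fluorescence within 50% of control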; note: strong numbers were not always called active
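Compound: 20 µM single dose, 1% DMSO / System: HT1080 RFP-PRO-GFP cells / Controls: DMSO and RFP-L50D-GFP cell wells / Read-out basis: GFP/RFP fluorescence ratio / Schedule: overnight compound exposure at 37 °C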
CSC inhib – cancer stem cell inhibition; AID 2717; cancer stem cell-like cells viability, luminescence; inhibition, % at 7.5 µM; hit rate 1.1% among 300,000;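 active = mean at 75% or more and at least half the replicates too; tested in HMLE shEcad cells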;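 note: 0% = median of negative and 100% = median of positive control wells; the first replicate is given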
MT1-MMP act inh RFP – also measured in MT1-MMP act inh; calls as there; RFP signal change, %; measured here: RFP expression control read;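 0 = vehicle wells; hits needed this value within 50% of zero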
Active calls of the source: *; i = inactive; . = no result given. The order is random (roughly 2.9% active in at least one column).

smiles	eIF4H inh	PABP polyA inh	Yeast UUG start	Env fusion inh	MT1-MMP act inh	CSC inhib	MT1-MMP act inh RFP	Rce1 inhib
CC(C)(C)C(=O)COC(=O)CNC(=O)c1ccc(Oc2ccccc2)cc1	1	2	-10	-22	6	-6	1	i
COc1ccc(NC(=O)CSc2nnnn2C2CC3C=CC2C3)cc1 (stereo unspecified)	-6	-2	.	-9	1	-20	1	i
CC(Cc1ccccc1)NC(=O)CCCN1C(=O)c2ccccc2C1=O (stereo unspecified)	5	4	-18	9	3	-11	6	i
CSC(=NNC(=O)c1ccccc1O)SC	42	-10	.	.	6	.	-2	i
CC(=O)Nc1cccc(NC(=O)c2ccccc2OCc2c(C)noc2C)c1	.	.	13	-9	-7	-12	1	i
Cc1c(Cc2ccccc2)c(=O)oc2c(C)c(OCC(=O)NCC3CCC(C(=O)O)CC3)ccc12 (stereo unspecified)	-2	2	-11	.	-4	4	-6	i
COc1ccc(C(Nc2cccc([N+](=O)[O-])c2)P(=O)(OC(C)C)OC(C)C)cc1 (stereo unspecified)	-10	-6	.	57*	-2	3	2	i
CCc1ccccc1NC(=S)N(CCN1CCOCC1)C1CCN(C(C)=O)CC1	-4	-4	-17	9	3	-21	6	i
O=C(O)CCCCCN1C(=O)C(O)=C(C(=O)/C=C/c2ccccc2)C1c1ccccc1[N+](=O)[O-] (stereo unspecified)	4	-4	.	1	-5	0	1	i
Cc1ccc(C(=O)NCC(=O)NCC(=O)OCc2ccc(Cl)cc2)cc1	-11	-2	-2	.	5	2	4	i
CCn1c(=O)cc(OCC(=O)O)c2ccccc21	-7	3	1	-14	-1	-1	2	i
CCN=C1SC(CC(=O)NC(C)c2ccccc2)C(=O)N1CC (stereo unspecified)	-13	-4	.	-6	-4	8	-1	i
COc1ccc(C2c3ccc(O)cc3Oc3ncn(CCCO)c(=N)c32)cc1OC (stereo unspecified)	17	13	1	-4	-112	-1	15	i
Cc1c(Cl)cccc1NC(=O)CNC(=O)Cc1c[nH]c2ccccc12	.	.	-9	.	2	-9	3	.
COc1ccc(CN2CCNC(=O)C2CC(=O)N(C)CC2CCOCC2)c(F)c1 (stereo unspecified)	9	7	-2	3	-3	5	3	i

Part of the list above, field by field:
COc1ccc(C2c3ccc(O)cc3Oc3ncn(CCCO)c(=N)c32)cc1OC (stereo unspecified)
- eIF4H inh = 17
- PABP polyA inh = 13
- Yeast UUG start = 1
- Env fusion inh = -4
- MT1-MMP act inh = -112
- CSC inhib = -1
- MT1-MMP act inh RFP = 15
- Rce1 inhib = i

Cc1c(Cl)cccc1NC(=O)CNC(=O)Cc1c[nH]c2ccccc12
- eIF4H inh = .
- PABP polyA inh = .
- Yeast UUG start = -9
- Env fusion inh = .
- MT1-MMP act inh = 2
- CSC inhib = -9
- MT1-MMP act inh RFP = 3
- Rce1 inhib = .

(list continues)
smiles	eIF4H inh	PABP polyA inh	Yeast UUG start	Env fusion inh	MT1-MMP act inh	CSC inhib	MT1-MMP act inh RFP	Rce1 inhib
O=C(CSc1nc(-c2ccco2)cc(C(F)(F)F)n1)NC1CCCCCCC1	.	.	.	.	-9	-5	-3	i
O=S(=O)(NCc1cc(-c2ccccc2)no1)c1ccccc1Cl	6	16	.	17	-1	3	4	i
Cn1nc(C(=O)Nc2cccc(C(F)(F)F)c2)c2ccccc2c1=O	0	-5	-6	-50	2	-2	4	i
COc1ccc(-n2nc3c(N4CCC(C(=O)N5CCCCCC5)CC4)nnc(C)c3c2C)cc1	-6	4	-16	-4	-5	-1	2	i
Cc1cccc(OCCNc2cc(N3CCN(CCO)CC3)ccc2[N+](=O)[O-])c1	2	1	-2	-10	3	58	-3	i
CCN(CC)CCNC(=O)CN1C(=O)CSc2ccc(S(=O)(=O)N3CCOCC3)cc21	.	.	-23	-17	0	.	4	.
O=C(O)CSc1nnc(C2COc3ccccc3O2)n1-c1ccccc1 (stereo unspecified)	-7	1	-24	-39	0	-10	3	.
CCCc1cc(=O)oc2cc(OCC(=O)NCCN3CCOCC3)c(Cl)cc12	.	.	5	7	-4	.	-3	.
CC[N+](CC)(CC)CC(=O)Nc1ccc(SC(F)F)cc1	-10	-4	-3	3	-2	-7	-5	i
NC(=O)C(c1ccccc1)C1CCCCC1 (stereo unspecified)	9	-4	-47	-53	-8	-7	-2	i
Cc1cc(C(=O)OCC(=O)NCc2ccc(Cl)cc2)c(C)o1	-1	5	-16	5	0	4	4	i
COCCNC(=O)c1cccc(NS(=O)(=O)c2cccc3cccnc23)c1	28	6	.	.	6	-4	6	i
COc1ccccc1CNc1cc(C)ccc1C	-14	0	-18	.	-2	-9	3	i
O=C(NCCc1ccc(Cl)cc1Cl)c1cncc(Br)c1	-5	7	-1	20	-2	10	1	i
COc1cc(/C(C)=N\NC(N)=S)cc(OC)c1OC	-2	-9	-7	.	1	10	4	i
CCN(CC(=O)Nc1ccccc1C(F)(F)F)C(=O)c1cc2c(s1)CCCCC2	.	.	.	13	14	0	-2	i
O=C(NC12CC3CC(CC(C3)C1)C2)c1c(Cl)cccc1Cl	2	-2	-18	5	1	4	-1	i
COc1ccc(C2C(C#N)=C(N)OC3=C2C(=O)CCC3)cc1Cn1nc(C)c([N+](=O)[O-])c1C (stereo unspecified)	2	-2	-5	.	-4	-7	-3	i
Cc1cc(NC(=O)Cc2c(F)cccc2Cl)no1	4	6	-2	-31	2	-4	5	i
COc1cc(C(=O)NCC(=O)N/N=C(\C)Cc2ccccc2)cc(OC)c1OC	-8	-5	3	-3	-3	-21	0	i
COc1ccc(-n2c(SCC(=O)N3CCC(C(=O)O)CC3)nc3ccccc3c2=O)cc1OC	-10	2	2	-6	-2	-5	-1	i
CC1S/C(=C(\C#N)C(=O)NCc2ccco2)N(c2ccc(F)cc2)C1=O (stereo unspecified)	110*	108*	-19	.	-4	4	4	i
COc1ccccc1NCC(=O)NNCC(=O)Nc1ccc(F)c(Cl)c1	-1	-10	-7	18	-4	-1	-3	i
CNC(=O)C(=O)Nc1nc(C23CC4CC(CC(C4)C2)C3)cs1	5	6	.	10	8	3	10	i
Nc1nnc(SCC(=O)NC2CCCCC2)s1	-2	6	-11	.	-1	-15	0	i
CCOC(=O)N1CCN(S(=O)(=O)c2ccc(C(=O)Nc3sc4c(c3C#N)CC(C)(C)NC4(C)C)cc2)CC1	-17	-2	-6	-4	0	-2	1	i
CC(C)OC(=O)NCCOC(=O)Nc1ccc(Cl)cc1	2	0	.	12	6	-7	0	i
CCOC(=O)Cn1nc(NC(=O)c2ccc(C(=O)OC)cc2)cc1C	-2	1	-27	-18	0	-15	0	i
CC(C)n1c(NCc2c[nH]c3ccccc23)nc2ccccc21	-9	-12	-12	.	5	-7	-4	i
COc1cc(S(=O)(=O)N2CCN(c3ccccc3F)CC2)ccc1Cl	-4	-19	13	-9	-3	12	-5	i
CCOc1ccc(NC(=O)CN(C)S(=O)(=O)c2ccc(-c3ccc(=O)[nH]n3)s2)cc1	4	-5	-10	8	-1	-8	1	i
CCOC(=O)[C@@H]1[C@H]2COc3ccccc3[C@@H]2N2C(=O)N(c3ccccc3)C(=O)[C@@]12C	-24	2	-15	.	-1	-9	3	i
COc1ccc(C(=O)NC(C)c2ccc(-n3ccnc3)cc2)c(OC)c1 (stereo unspecified)	-1	38	-16	3	10	-5	-6	i
COCCN(Cc1ccccc1)C(=O)c1cc(S(=O)(=O)N2CCCCCC2)ccc1OC	.	.	.	3	-2	-3	-3	i
CN(C)CCCNC(=O)c1cc(C(=O)c2ccccc2)c[nH]1	2	1	-14	-2	-1	-12	0	i
CCSc1nc(N)nc(-c2cccs2)c1C#N	-2	-4	-26	.	-3	-6	1	i
COc1ccc(NC(=O)c2cc(-c3ccc(C)c(C)c3O)n[nH]2)cc1Cl	-3	2	-15	-1	5	18	1	i
COc1ccc(N[C@@H]2CCN3C(=O)c4ccccc4[C@@H]3C[C@H]2O)cc1	.	.	-24	16	3	.	6	.
O=C(O)CCC(=O)N1N=C(c2cccs2)CC1c1cn(-c2ccccc2)nc1-c1ccccc1 (stereo unspecified)	0	8	-10	.	2	10	1	i
COc1ccc(NC(=O)CCNC(=O)c2ccccc2Cl)cc1OC	-6	0	-11	-18	-3	6	2	i
CC1(C)N=C(c2ccc(Cl)cc2)C(=O)N1	-8	5	3	.	4	-16	1	i
COc1cccc(/C(O)=C2/C(=O)C(=O)N(CCN3CCOCC3)C2c2cccs2)c1 (stereo unspecified)	-8	4	-17	-100	-2	-5	1	i
CCCNC(=O)c1ccc(Cn2c(=S)[nH]c3c([nH]c4ccc(OC)cc43)c2=O)cc1	-4	-4	-12	-11	-4	-1	1	i
Cc1nn(CC(=O)NCc2cccnc2)c(=O)c2ccccc12	-5	0	-26	-69	1	10	6	.
COC(=O)c1ccccc1NC(=O)c1cccs1	-1	12	-5	-83	-5	1	-1	i

Just eIF4H inh, Rce1 inhib and MT1-MMP act inh, for 2 of the compounds above:
SMILES	eIF4H inh	Rce1 inhib	MT1-MMP act inh
COc1cc(S(=O)(=O)N2CCN(c3ccccc3F)CC2)ccc1Cl	-4	i	-3
O=C(NCCc1ccc(Cl)cc1Cl)c1cncc(Br)c1	-5	i	-2

Further results follow:
smiles	eIF4H inh	PABP polyA inh	Yeast UUG start	Env fusion inh	MT1-MMP act inh	CSC inhib	MT1-MMP act inh RFP	Rce1 inhib
O=S(=O)(c1ccc(SCCOc2ccccc2Cl)nc1)N1CCCC1	.	.	-5	9	-1	20	-7	.
CCN(CC)c1ncnc2c1ncn2[C@H]1CN(Cc2ccccc2)C[C@@H](CO)O1	.	.	0	21	2	.	10	.
CC1=C(C(=O)N2CCOCC2)C(c2cccc3ccccc23)NC(=S)N1 (stereo unspecified)	-9	7	.	-36	3	3	7	i
CC(=O)c1c(C)[nH]c(C(=O)CSc2nnc(-c3ccccc3)o2)c1C	6	-8	12	.	9	-9	-17	i
CCc1cc(C(=O)c2ccccc2)c(N)s1	-2	-11	-14	-24	-2	0	-1	i
COc1ccc(CNC(=O)C[C@H]2C[C@H](C(=O)N3CCCCC3)[C@@]3(C)c4[nH]c5cc(CCC(=O)N(C)C)ccc5c4CCN3C2=O)cc1OC	.	.	0	0	2	.	3	.
O=C(Nc1ccc(Br)cc1)C1CCCN(S(=O)(=O)c2cccnc2)C1 (stereo unspecified)	-4	4	.	32	-1	-2	-7	i
CN(C)S(=O)(=O)c1ccc(C(=O)Nc2nnc(-c3ccc4c(c3)CCCC4)o2)cc1	16	-6	-11	-36	-3	23	-6	i

Not a retest: entries from further up.
smiles	eIF4H inh	PABP polyA inh	Yeast UUG start	Env fusion inh	MT1-MMP act inh	CSC inhib	MT1-MMP act inh RFP	Rce1 inhib
Cn1nc(C(=O)Nc2cccc(C(F)(F)F)c2)c2ccccc2c1=O	0	-5	-6	-50	2	-2	4	i
COc1ccc(-n2nc3c(N4CCC(C(=O)N5CCCCCC5)CC4)nnc(C)c3c2C)cc1	-6	4	-16	-4	-5	-1	2	i
Cc1cccc(OCCNc2cc(N3CCN(CCO)CC3)ccc2[N+](=O)[O-])c1	2	1	-2	-10	3	58	-3	i
CCN(CC)CCNC(=O)CN1C(=O)CSc2ccc(S(=O)(=O)N3CCOCC3)cc21	.	.	-23	-17	0	.	4	.
O=C(O)CSc1nnc(C2COc3ccccc3O2)n1-c1ccccc1 (stereo unspecified)	-7	1	-24	-39	0	-10	3	.

Screening results from PubChem.
